Vif A3G – inhibitors of Vif binding to APOBEC3G peptide, primary screen, biochemical, TR-FRET, GST-Vif 1-94, biotin-A3G peptide, dose response retest (AID 1117319). TR-FRET GST-Vif / biotin-A3G peptide binding; higher % means a stronger effect; test concentration not given here; strong numbers were not always called active. inhibition, %; hits with a dose series show IC50 in µM. actives 0.57% (n = 260,000);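 active means above the screen mean plus three standard deviations and confirmed in dose response; inconclusive means results disagree or hit not tested in dose response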;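 further: Vif residues 1-94 fused to GST binding biotinylated APOBEC3G peptide 110-148; 0% = full assay without inhibitor and 100% = GST in place of GST-Vif; retest series ran down from 100 µM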
Beta2AR agonist – agonists of human beta-2 adrenergic receptor inducing internalization. P07550. Am2.2-beta2AR cells, FAP receptor internalization, flow cytometry; reference of the scale not given here. response, % (test concentration not listed). actives 0.43% (n = 340,000);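 active means response above a set limit, near 3 SD of response in nonfluorescent compounds, cut at about 42% in these data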;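 further: stock transfer was 100 nL into about 11 µL; a reference agonist was the positive control; negative values mostly stem from fluorescent compounds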
Target sequence (P07550 whole entry, looked up): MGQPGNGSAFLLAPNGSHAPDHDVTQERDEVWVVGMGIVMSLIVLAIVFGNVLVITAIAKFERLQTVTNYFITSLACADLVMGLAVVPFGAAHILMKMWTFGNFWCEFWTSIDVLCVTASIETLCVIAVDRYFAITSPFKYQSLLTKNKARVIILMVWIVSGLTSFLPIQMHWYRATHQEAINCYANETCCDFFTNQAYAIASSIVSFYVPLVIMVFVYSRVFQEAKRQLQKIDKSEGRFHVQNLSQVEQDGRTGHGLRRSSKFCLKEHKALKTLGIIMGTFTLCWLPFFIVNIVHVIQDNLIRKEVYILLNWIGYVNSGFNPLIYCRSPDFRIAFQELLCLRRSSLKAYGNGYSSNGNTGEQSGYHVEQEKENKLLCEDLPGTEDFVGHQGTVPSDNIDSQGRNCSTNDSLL
RanGTP-Impb inh – disruptors of Ran-importin-beta complex formation – biochemical, FRET, CFP-Ran, YFP-importin-beta, homogeneous, primary screen | inhibition, % (no concentration beside the values) | actives 1.1% (n = 300,000) | cell-free CFP-Ran/YFP-importin-beta FRET ratio;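 active means most replicates above 15%; inconclusive means exactly half above 15%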;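 further: 0% = DMSO wells and 100% = Ran loaded with GDP instead of GTP; wells of about 40 µL received 100 nL stock; the first replicate is given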
LANA-H2A inh – blocks KSHV LANA binding to histone H2A/H2B; actives 0.6% (n = 320,000); AID 2629; cell-free LANA-H2A/H2B peptide, fluorescence polarization; inhibition, % (test concentration not listed); in the data active means inhibition mostly above about 10%, no sharp cut-off; inactive means mostly below about 6.7%;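 further: stock transfer was 7.5 nL into about 10 µL; 0% = median of vehicle wells and 100% = median of positive control wells; one replicate is shown; the record names a cut of 25% in any replicate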
ALR H2O2 inh – human ALR oxidase inhibition via reduced H2O2; P55789; purified ALR, DTT oxidation, H2O2 HRP-luminol luminescence; inhibition, % (test concentration not listed); actives 3.8% (n = 290,000); AID 485317;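 active means mean and each replicate at 75% or more; inconclusive means only one of the two met; inactive means neither met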;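 further: stock transfer was 7.5 nL into about 7.5 µL; 0% = neutral wells and 100% = wells with inactivated enzyme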
Target sequence (P55789 whole entry, looked up): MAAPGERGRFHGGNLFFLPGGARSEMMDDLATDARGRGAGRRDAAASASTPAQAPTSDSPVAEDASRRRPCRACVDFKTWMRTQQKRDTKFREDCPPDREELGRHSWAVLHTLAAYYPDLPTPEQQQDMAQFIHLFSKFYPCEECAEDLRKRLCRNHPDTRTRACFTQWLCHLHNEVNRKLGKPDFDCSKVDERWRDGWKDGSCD
HNF4A DNA FP – change in binding of human HNF4 alpha to DNA; P41235; HNF4a-FITC DNA binding, fluorescence polarization, 1 h; activity change, % at 10 µM; actives 0.3% (n = 360,000); AID 1224865; in the data active means activity change above about 30%, passing the limit was not always enough;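 further: controls were the assay level and a saturating level of protein; the project sought stronger binding though the title names inhibitors; some compounds called inactive have numbers as strong as hits; positive values seem to mean higher polarization but the record does not say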
Target sequence (P41235 whole entry, looked up): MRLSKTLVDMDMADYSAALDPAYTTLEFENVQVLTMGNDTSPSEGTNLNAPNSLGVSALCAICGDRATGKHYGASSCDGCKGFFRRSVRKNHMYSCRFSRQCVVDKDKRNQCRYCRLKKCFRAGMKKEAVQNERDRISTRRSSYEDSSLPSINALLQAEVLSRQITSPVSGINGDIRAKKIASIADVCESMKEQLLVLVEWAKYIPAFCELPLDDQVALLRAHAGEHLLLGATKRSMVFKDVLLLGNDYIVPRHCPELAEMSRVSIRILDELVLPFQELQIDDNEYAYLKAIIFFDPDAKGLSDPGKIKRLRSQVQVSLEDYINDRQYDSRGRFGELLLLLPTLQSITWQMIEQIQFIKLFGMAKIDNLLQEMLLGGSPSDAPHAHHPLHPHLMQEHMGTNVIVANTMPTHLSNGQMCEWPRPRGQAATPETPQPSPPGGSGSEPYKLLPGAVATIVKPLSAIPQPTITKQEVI
Calb FLC – C. albicans growth modulation with fluconazole; C. albicans CaCi-2 (fluconazole-resistant clinical isolate) + fluconazole, Alamar Blue growth, 48 h; actives 0.57% (n = 300,000); growth inhibition, % (test concentration not listed);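 active means most replicates above 75%; inconclusive means exactly half above 75%; inactive means most below 75%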;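 further: all wells also contain fluconazole at 8 µg/ml as a sub-toxic cotreatment; 0% = median of DMSO wells and 100% = median of geldanamycin control wells; wells of about 8 µL received 7.5 nL stock; the first replicate is given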
An asterisk follows results filed as active; ? = inconclusive; / = no result given; & = joins results of further samples.

SMILES	Vif A3G	Beta2AR agonist	RanGTP-Impb inh	LANA-H2A inh	ALR H2O2 inh	HNF4A DNA FP	Calb FLC
Cc1cccc(C)c1N1C(=O)CC(N2CCSCC2)C1=O (stereo not given)	?	-2	-2.4	0.8	-22	-1.0	-3
CC1(C)C(=O)Nc2ccccc2N1C(=O)Cn1ncc(Cl)c(Cl)c1=O	/	-2	-2.1	2.3	9	-0.9	7
COc1cccc(/C=C/C(=O)OCC(=O)c2ccc(C)c(C)c2)c1OC	-6%	0	/	20*	0	-1.4	/
COc1ccc(OC)c(NC(=O)CCC(=O)Oc2ccc(C)cc2)c1	/	-8	-4.0	-5.6	/	-0.6	3
COc1cc(/C=N/N=C2/C(=O)Nc3ccccc32)cc(OC)c1O	15%	-2	-3.5	-3.3	95*	0.1	-11
OCCSc1nc2ccccc2n1CCOc1ccccc1	0%	-4	-3.4	1.0	-7	-0.5	-8
N#Cc1c(N)nc2c(c1-c1ccncc1)CCCC2	3%	0	-0.7	0.2	-12	-0.8	13
CC(C)(Oc1ccc(CCNC(=O)c2ccc(-c3ccccc3)o2)cc1)C(=O)O	-3%	-2	4.9	7.1	3	-0.2	5
Cc1cccc(NS(=O)(=O)c2ccc(C)c(C(=O)OCC(=O)Nc3cc(C)on3)c2)c1	2%	4	2.1	-0.2	-7	2.0	7
O/N=C(/CCc1ccccc1)c1ccc2c(c1)OCCO2	/	9	-3.9	-1.7	/	-2.6	-4
CC(=O)Nc1ccc(C(=O)COC(=O)c2nc3nc(C)cc(C)n3n2)cc1	/	3	/	-0.9	-32	6.4	/
CC(=O)Nc1ccc(S(=O)(=O)Nc2nc3ccccc3nc2Nc2ccc3ccccc3c2)cc1	/	10	-12	2.7	?	27	-8
O=C(Nc1nccs1)c1ccc([N+](=O)[O-])cc1Cl	6%	0	2.3	2.3	-34	-3.4	-7
Cc1cccc(C)c1NC(=O)CNC(=O)c1ccccc1OCc1ccccc1	5%	-2	1.4	-1.1	0	0.3	3
Cc1[nH]n(-c2ccccc2)c(=O)c1/C=N\NC(=O)C1COc2ccccc2O1 (stereo not given)	/	3	-5.5	-2.9	32	-0.9	-3
O=C(CS(=O)(=O)c1ccccc1)c1ccc2c(c1)OCCO2	21%	3	-2.9	1.4	-10	-0.3	1
Cc1cc(Br)ccc1NC(=O)CN(C)C(=O)c1ccc(-n2cncn2)c([N+](=O)[O-])c1	-2%	-5	/	-0.8	-16	2.3	/
O=C(CCCn1c(=S)[nH]c2cc3c(cc2c1=O)OCO3)N1CCN(c2ccccc2F)CC1	-23%&4%	7	0.5	-1.0	0	2.6	5
Cc1oc2ccc(O)c(CN3CCOCC3)c2c1C(=O)c1ccc(Cl)cc1	10%	-10	2.7	-5.2	/	-3.3	4
COc1ccc(CCNC(=O)Cc2cccs2)cc1OC	/	4	0.1	3.6	-1	0.9	-6
COc1cc2[nH]c(=S)nc(NCCc3ccc(S(N)(=O)=O)cc3)c2cc1OC	-13%	2	5.5	0.8	-2	2.3	-3
COc1nc(OC)nc(N2CCC(C(=O)NCC3CCCCC3)CC2)n1	-5%	-5	0.4	-1.0	-8	-0.1	-19
COc1ccccc1C/C(N)=N/OC(=O)COc1cccc(C)c1	/	-2	4.1	-7.1	2	-1.1	-5
O=C(COC(=O)c1cnccn1)Nc1ccccc1-c1ccccc1	1%	-4	/	-2.9	-3	1.2	/
CCc1ccc(NC(=O)c2noc(C(C)C)c2[N+](=O)[O-])cc1	1%	9	-1.5	-3.1	-9	1.8	71
CC(=O)Oc1cc2c3c(c1)/C(=C1/SC(=S)NC1=O)C(=O)N3C(C)(C)C=C2C	32%	-1	5.5	-3.6	21	-0.3	1
O=C(CSc1nc2ccccc2[nH]1)N/N=C/c1ccncc1	/	3	2.8	0.4	/	-2.4	-14
CCCC(=N)C1=C(O)CC(CC(C)SCC)CC1=O (stereo not given)	-1%	-8	5.7	0.2	0	-1.6	-9
CC1C(C#N)=C(N)OC2=C1C(=O)CCC2 (stereo not given)	3%	3	0.0	-1.1	8	-1.5	1
CCCn1c(N)c(C(=O)CSc2nnc(Cc3ccccc3)o2)c(=O)n(C)c1=O	8%	1	-0.3	-6.2	/	0.6	43
Cc1ccc2oc(=O)c3cnn(CC(=O)N(CCCN4CCOCC4)Cc4ccco4)c3c2c1	29%	2	/	1.8	-4	-1.2	/
CN(C)S(=O)(=O)N1CCN(c2ccc([N+](=O)[O-])c(N3CCCCC3)c2)CC1	-3%	3	0.8	-8.1	-3	0.0	-14
Cc1c(N)cc[n+](CC(=O)c2ccccc2)c1C	-5%	3	1.6	-0.7	-16	-2.8	-5
CC(C)(C)OC(=O)CNC(=O)c1[nH]cnc1C(=O)N[C@@H](Cc1ccccc1)C(=O)OC(C)(C)C	25%	1	-0.6	6.4	-10	0.3	1
N#Cc1c(N(CCO)CCO)nc(N)c2c(N)nc3c(c12)CC(=O)N3CC1CCCO1 (stereo not given)	18%	6	?	4.5	0	0.9	-5
CSc1ccc(Cl)c(C(=O)OCC(=O)Nc2ccccc2OC(F)F)c1	31%	4	0.5	0.6	-1	-0.5	2
Cc1ccc(OCCOC(=O)c2c(-c3ccccc3)noc2C)cc1	-5%	1	1.4	-0.8	-2	-0.7	0
O=C(COC(=O)c1ccc(O)cc1O)c1ccc(Cl)cc1	-2%	-2	-5.3	-4.7	/	-1.3	-6
Cc1ccsc1C(=O)N1CCC(CO)(Cc2ccccc2)CC1	-15%	3	1.4	-4.5	-9	1.2	6
O=C(CNS(=O)(=O)c1cccc2nonc12)NCc1ccc(F)cc1	-3%	-9	-0.7	4.4	-5	-0.4	6
COc1ccc(C(=O)SC2=NCCS2)cc1	16%	-3	1.8	1.7	/	-1.0	-15
NC(=O)c1nsc(C(=O)N(c2ccc(Cl)cc2)C(C(=O)NCC2CCCO2)c2cccs2)c1N (stereo not given)	/	-7	-2.2	-3.2	-18	-1.2	10
COc1ccc(CCNC(=O)C(C)Sc2ccc(C)cc2)cc1OC (stereo not given)	-9%	7	0.4	5.8	-4	3.4	16
Cc1cc(C)cc(N(CC(=O)NCc2ccco2)C(=O)CCC(=O)Nc2nccs2)c1	18%	-2	-0.1	1.8	-7	3.0	-6
COc1ccccc1-c1sc2ccccc2c1C#Cc1ccc(N(C)C)cc1	/	8	/	-1.0	0	5.2	/
CCCOc1ccc(C(=O)C(CN2CCOCC2)c2ccccc2)cc1 (stereo not given)	-1%	-11	1.3	-1.4	1	1.0	1
O=C(NCCC1=CCCCC1)c1ccc(-n2cncn2)cc1	0%	3	/	2.3	/	0.5	/
CCCOc1ccc(-c2csc3ncn(Cc4ccc(C(=O)O)cc4)c(=O)c23)cc1	4%	3	4.4	-3.7	63	1.7	-6
COc1ccc(N(C(=O)CNS(=O)(=O)c2ccccc2)C(C(=O)NCc2ccco2)C(C)C)cc1 (stereo not given)	-8%	-5	7.0	/	/	-0.7	14
COc1ccccc1CNC(=O)C1CCN(S(=O)(=O)c2ccc3c(c2)C(C)(C)C(=O)N3C)CC1	/	0	4.9	-1.4	-3	-2.0	3
O=C(CSc1ccc(Cl)cc1)NNC(=O)c1cccnc1	-1%	5	1.7	-1.1	/	0.2	4
COc1ccc(C(=S)N(C)C)cc1OC	-5%	1	-3.4	-2.3	-7	-1.0	-14
O=C(Nc1ccc(NC(=O)c2cccs2)cc1)c1ccc2c(c1)OCCO2	4%	2	2.7	1.2	/	-2.0	-2
O=C(NNC(=O)c1cccnc1Cl)c1ccc(F)cc1	/	3	-1.6	3.1	0	-2.1	1
Cc1ccc(SCCNS(=O)(=O)c2ccc(F)cc2)cc1	-2%	4	1.3	-2.7	-5	-2.0	0
c1cc(C(c2nnnn2C2CCCCC2)N2CCN3CCCC3C2)ccn1 (stereo not given)	15%	3	1.1	2.0	-5	-2.4	-2
CCC(=O)Nc1sc(C(=O)Nc2ccccc2F)c(C)c1C(=O)OC	/	-16	-0.7	-0.5	-5	-2.8	-2
Cc1nc2scc(C)n2c(=O)c1S(=O)(=O)N1CCN(c2ccccn2)CC1	/	-26	-2.5	3.9	1	2.0	0
Cc1ccc(/C=N/NS(=O)(=O)c2ccccc2)o1	/	10	0.4	/	/	-8.3	-13
Cc1cc(NCc2ccccn2)n2ncc(-c3ccc(Cl)cc3)c2n1	-36%	-2	1.3	0.1	56	1.7	8

Of the compounds above, 2 have a COOH group:
SMILES	Vif A3G	Beta2AR agonist	RanGTP-Impb inh	LANA-H2A inh	ALR H2O2 inh	HNF4A DNA FP	Calb FLC
CC(C)(Oc1ccc(CCNC(=O)c2ccc(-c3ccccc3)o2)cc1)C(=O)O	-3%	-2	4.9	7.1	3	-0.2	5
CCCOc1ccc(-c2csc3ncn(Cc4ccc(C(=O)O)cc4)c(=O)c23)cc1	4%	3	4.4	-3.7	63	1.7	-6

Continuation:
SMILES	Vif A3G	Beta2AR agonist	RanGTP-Impb inh	LANA-H2A inh	ALR H2O2 inh	HNF4A DNA FP	Calb FLC
Nc1nc(SCC(=O)Nc2ccc([N+](=O)[O-])cc2Br)n[nH]1	2%	-2	-1.6	2.2	48	0.3	2
Nc1ccccc1C#Cc1cnccn1	/	9	1.1	2.8	-1	-8.8	-4
CCOc1ccc(NC(=O)CN(C)C(=O)CC2CCCC2)cc1OCC	-7%	7	/	0.6	-5	1.4	/
CC(C)(C)C(=O)NC(=S)Nc1ccccc1F	-2%	1	2.5	-2.4	-12	-1.8	-20
O=C(CSc1nnc(Cn2nnc(-c3ccccc3)n2)n1-c1ccccc1)Nc1ccccc1	6%	-2	8.0	-0.6	/	-0.1	-18
COc1cccc(NC(=S)N(CCc2nc3cc(C)c(C)cc3[nH]2)Cc2cccnc2)c1	-3%	13	2.6	-2.7	-5	-1.6	5
COc1cccc(C(=O)NC2CCCC2)c1	6%	3	/	1.1	-3	1.1	1
COCCn1c(SCC(=O)NCC2CCCO2)nc2c(c1=O)SCC2 (stereo not given)	-3%	-1	4.9	-8.1	-1	0.0	-4
Cc1ccc(CNC(=O)C2(S(=O)(=O)c3ccccc3)CC=CC2)cc1	/	3	4.6	0.5	/	-3.8	-4
Cc1nnc2ccc(N3CCN(c4ccccn4)CC3)nn12	26%	-21	?	0.8	-13	3.5	4
CC(C)C(=O)NC(c1ccc(Cl)cc1Cl)c1ccc2cccnc2c1O (stereo not given)	/	28	-2.1	1.3	-2	1.2	6
CCOc1ccc2nc3c(cc2c1)CN(CCOC)C(=NC)S3	-10%	5	-2.8	0.7	-40	1.7	2
Nc1nonc1-n1nnc(C(=O)N/N=C/c2ccoc2)c1CSc1ccc(Cl)cc1	-2%	-19	6.5	-0.5	-2	-1.3	7
COc1ccc2nc(NC(=O)CCN3C(=S)NC(C)(C)CC3C)sc2c1 (stereo not given)	-6%	4	-1.3	-2.8	3	0.1	-22
CC1(O)c2ccccc2C(=O)N1CCc1ccccc1F (stereo not given)	-1%	-2	-1.4	-2.7	-1	-0.2	-4
O=C1/C(=C/c2ccncc2)SC(=S)N1Nc1ccccc1	14%	7	8.9	-1.5	99*	-1.7	-16
Cc1cccc(N/C=C/C(=O)c2ccc(Cl)cc2)c1	-2%	-4	0.4	-0.7	-9	4.1	-13
Cc1cccc(C)c1NC(=O)CSc1nnc(CCCCCNC(=O)OC(C)(C)C)o1	5%	1	0.6	-2.0	-5	-2.3	-9
Cc1ccc(-c2cnn(-c3cccc([N+](=O)[O-])c3)c2N)cc1	2%	1	?	-8.4	40	-3.7	-11
CCOc1cc(/C=N\NC(=O)Cn2nnc3ccccc32)ccc1O	/	-5	5.5	-0.8	55	-3.5	-20
Cc1c(O)ccc2c(CN(C)Cc3ccccc3)cc(=O)oc12	-9%	8	23*	5.3	86*	-0.3	-2
CSCCC(NS(=O)(=O)c1ccc(F)cc1)C(=O)NCc1ccc(S(N)(=O)=O)cc1 (stereo not given)	-3%	-8	9.1	3.2	2	0.5	-5

Bioassay records (PubChem BioAssay)
